Source: PubChem (ICCB-Longwood Screening Facility, Harvard Medical School)
Anaer choline gr – growth inhibitors of anaerobic choline-fed gram-negatives, minimal medium, absorbance. Gram-negative bacterium anaerobic choline minimal medium; hits give low values; many inactives read as strong as hits in the columns shown. calls only. 55,000 compounds, 0.2% hits;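 active = growth z-score on choline under -2 at 7 or 20 h with little or no fall on glycerol, limits in tiers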;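 also: stock transfer was 300 nL into about 50 µL; the organism is E. coli; final concentration not given here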
Anaer choline gr early – recorded beside Anaer choline gr, whose call it bears; z-score; measured here: choline growth z-score, timepoint 1;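 score of optical density at 7 h as mean of two plates; lower means less growth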
* marks the source's active call; other numbers are inactive results; i = inactive; & = joins results of further samples. A portion of the library, so the mix of outcomes need not match the whole.

| smiles | Anaer choline gr early | Anaer choline gr |
| --- | --- | --- |
| CC(C)(CO)NCc1ccc(-c2ccc(F)c(Cl)c2)o1 | 0.36 | i |
| COc1ccccc1NC(=O)c1sc(=S)n2c1[nH]c(=O)c1cc(Cl)ccc12 | -0.88 | i |
| O=C(COC(=O)CC1(CC2=NS(=O)(=O)c3ccccc3N2)CCCC1)Nc1ccccc1 | 0.52 | i |
| COc1ccc(S(=O)(=O)Nc2ccc(-c3ccc(N4CCCC4)nn3)cc2)cc1OC | 0.64 | i |
| CC(C)NC(=O)CSc1ncnc2nc(N3CCSCC3)sc12 | 0.45 | i |
| Cc1ccc2nc(C3=C(O)CN(CC4CCCO4)C3=N)[nH]c2c1 (stereo not given) | -0.05 | i |
| O=c1[nH]c(SCc2nc(-c3ccc(Br)cc3)no2)nc2ccsc12 | 2.4 | i |
| CCn1c(=O)c(SCC(=O)NCc2cccnc2)nc2ccccc21 | -0.22 | i |
| COc1ccc2c(c1)c(CC(=O)O)c(C)n2C(=O)c1ccc(Cl)cc1 | 0.13&-2.5&-0.24&0.55&0.81&0.03 | i |
| CCn1nccc1C1CCCN1S(=O)(=O)c1cc(C)ccc1NC(C)=O (stereo not given) | -0.2 | i |
| Cc1nn(-c2nc3ccccc3n2C)c2c1C(c1ccccc1)CC(=O)N2 (stereo not given) | -0.82 | i |
| O=c1c2nnc(SCc3ccccc3)n2ccn1-c1ccc(Br)cc1 | -1 | i |
| CCOC(=O)c1[nH]c(C)c(CN(C(=O)Nc2ccc(OCC)cc2)C2CCCCC2)c1C | 1.2 | i |
| Cc1ccc2snc(C(=O)N3CCN(C(=O)c4ccc(N(C)C)cc4)CC3)c2c1 | 0.38 | i |
| Cc1ccc(NC(=O)N2CCN(S(=O)(=O)c3cc4c(cc3Cl)NC(=O)C(C)O4)CC2)c(C)c1 (stereo not given) | -1.4 | i |
| COc1ccc(NC(=O)CCc2c(C)nn3cnnc3c2C)c(OC)c1 | -1.1 | i |
| O=c1[nH]cnc2c1ncn2C1OC(CO)C(O)C1O (stereo not given) | 0.43 | i |
| Cn1c(=O)c2c(nc(/C=C/c3cccc(Cl)c3)n2C)n(C)c1=O | -0.54 | i |
| COc1ccc(C2C(C(=O)O)c3cc(OC)c(OC)cc3C(=O)N2C)cc1OC (stereo not given) | -0.25 | i |
| O=C(CN1C(=O)CC(c2cccc(Cl)c2)=Nc2cccnc21)Nc1ccc2c(c1)OCO2 | 1.2 | i |
| CS(=O)(=O)Nc1ccc(N2CCN(CC(=O)N3CCOCC3)CC2)cc1C(=O)O | -1.5 | i |
| Cc1[nH]c2c(C(=O)NCc3ccccc3)c(C)sc2c1C | 0.52 | i |
| Cc1ccc(Nc2nc(C)c(NC(=O)C3CC(=O)N(c4ccccc4)C3)c(Nc3ccc(C)cc3)n2)cc1 (stereo not given) | -0.25 | i |
| O=C(NCC1CCCO1)C1(c2ccc(NS(=O)(=O)c3ccc4c(c3)CCCC4)cc2)CC1 (stereo not given) | -0.23 | i |
| COc1ccc(C2=Nc3ccccc3N(Cc3cccc(Cl)c3)C(=O)C2)cc1 | 0.13 | i |
| CN1C(=O)c2cc(C(=O)N3CCC(C(N)=O)CC3)nn2CC1(C)C(=O)NC1CCCC1 (stereo not given) | 0.12 | i |
| COc1ccc(NC(=O)C2Nc3ccc(Cl)cc3S(=O)(=O)N2)cc1 (stereo not given) | 0.29 | i |
| CCn1nccc1C1CCCN1C(=O)NCC(=O)OC (stereo not given) | 0.46 | i |
| O=C(Nc1ccccc1Cl)C1CCCN(c2nc3cccnc3s2)C1 (stereo not given) | -0.16 | i |
| Cc1cc(N2CCN(C3CCCCC3)CC2)n2nc(C)c(-c3ccc(F)cc3)c2n1 | 0.17 | i |
| O=C(CN1C(=O)c2cccnc2Oc2ccccc21)NCCc1c[nH]c2ccccc12 | -0.22 | i |
| CN(CCNc1ncnc2onc(-c3ccc(F)cc3)c12)Cc1ccccc1 | 0.44 | i |
| O=C(NCc1ccccc1)c1cnn(-c2ccccc2)c1 | -1.3 | i |
| O=C(O)c1cccc(N2CCCC2=O)c1 | -0.43 | i |
| CSc1ccc(-c2noc(CSc3ccc(-c4cccc(Br)c4)nn3)n2)cc1 | 0.98 | i |
| COc1ccc(OCC(=O)N2CSC[C@@H]2C(=O)NCCc2cscn2)cc1 | -0.1 | i |
| Cc1ccc(CNC(=O)CC2CCN(C(=O)c3cc4ccccc4[nH]3)CC2)cc1 | 0.1 | i |
| O=C(Nc1ccccc1)c1ccc(=O)n(CC(=O)N2CCCc3ccccc32)n1 | -0.53 | i |
| COc1cccc(CCNC(=O)c2sc3ncccc3c2-n2cccc2)c1 | -0.31 | i |
| CC(C)(C)c1nnc2sc(-c3cc4ccccc4[nH]3)nn12 | -1.9 | i |
| Cc1cc(C(=O)N2CCCC2c2ccccc2C)on1 (stereo not given) | -0.5 | i |
| Cc1cc(C)cc(S(=O)(=O)Nc2ccc(-c3ccc(N4CCOCC4)nn3)cc2)c1 | 1.2 | i |
| O=C(NCC1CCCO1)N1CCCn2nc(-c3cccs3)cc2C1 (stereo not given) | -0.8 | i |
| Cc1ccc(NC(=O)c2cccc(-n3cnnc3)n2)cc1Cl | -0.28 | i |
| CCN(CC)CCCC(C)Nc1ccnc2cc(Cl)ccc12 (stereo not given) | -0.13&0.29&-0.02 | i |
| CC1CCN(S(=O)(=O)c2ccc3ncn(CC(=O)N4CCCCC4C)c(=O)c3c2)CC1 (stereo not given) | -1.1 | i |
| O=C(CCn1cnc2onc(-c3ccccc3)c2c1=O)NCc1cccc(Br)c1 | 0.41 | i |
| Cc1ccc(-n2cc[nH]c(=O)c2=O)c(C)c1 | -0.37 | i |
| CCOCCn1c(=O)c2c(nc3n2CCCCN3c2ccc(OCC)cc2)n(C)c1=O | 0.73 | i |
| CC(C)CC(=O)Nc1ccc(S(=O)(=O)N2CCCC2c2nc(-c3ccc(Cl)cc3)no2)cc1 (stereo not given) | 0.71 | i |

(next part)
| smiles | Anaer choline gr early | Anaer choline gr |
| --- | --- | --- |
| CCOCCCNC(=O)C1CCCN(C(=O)CCc2c(C)[nH]c(C(=O)OCC)c2C)C1 (stereo not given) | 0.47 | i |
| O=C(Nc1cccc2c1CCCC2)n1ncc2cc(Cl)ccc21 | 1.1 | i |
| O=C(Cn1ncc2c(=O)oc3ccccc3c21)Nc1cnc2ccccc2c1 | 0.08 | i |
| CCCN1CCN(C2CCN(C(=O)C(C)(C)C)CC2)C1=O | -0.32 | i |
| CCOc1ccc(NC(=O)Nc2cccc(OCc3cc(=O)n4ccccc4n3)c2)cc1 | 0.3 | i |
| Cc1cccc(NC(=O)C2CCCN(S(=O)(=O)c3cc(-c4noc(C)n4)cs3)C2)n1 (stereo not given) | 1.1 | i |
| COc1ccc(-n2c(C)cc(CNS(=O)(=O)c3ccc4c(c3)CCC(=O)N4)c2C)cc1 | 0.52 | i |
| CN1CCN(C(=O)c2nc(-c3ccccc3)n(-c3ccccc3)n2)CC1 | 0.25 | i |
| Cc1c(C(=O)Nc2onc3c2CC(C)CC3)oc2ccccc12 (stereo not given) | -0.58 | i |
| O=C(Nc1ccc(F)c(Cl)c1)N1CCN(Cc2cc(=O)n3nc(-c4ccc(F)cc4)sc3n2)CC1 | 0.06 | i |
| CN(C)CC/C=C1\c2ccccc2COc2ccccc21 | 0.22&0.46 | i |
| CCOC(=O)C1CCC(CNC(=O)N2CCCCCC2c2cccs2)CC1 (stereo not given) | -0.24 | i |
| O=c1[nH]cccc1-c1nc(-c2ccccc2Cl)no1 | 0.04 | i |
| CCCCNc1cc(C)nc2c(-c3ccc(C)cc3)c(C(F)(F)F)nn12 | 2.4 | i |
| CN1C(=O)C(c2c[nH]c3ccccc23)=C(c2c[nH]c3ccccc23)C1=O | -0.82 | i |
| Cc1cn(C)c(CC(=O)NC2CCN(Cc3ccccc3)CC2)c1C(=O)O | 0.19 | i |
| CCOC(=O)c1cccc(NC(=O)CCn2cnc3ccccc3c2=O)c1 | 1.8 | i |
| Cc1cc(C2CCCN2Cc2ccc(O)cc2)on1 (stereo not given) | -0.9 | i |
| CCN(C(=O)C1CCCN1S(=O)(=O)c1cc2c(cc1Cl)NC(=O)CO2)c1ccccc1 (stereo not given) | -0.68 | i |
| O=C(O)c1cc(N2CCN(c3ccccc3F)CC2)nc2ccc(NC(=O)C3CCC3)cc12 | -0.12 | i |
| CCC(=O)c1ccc(Oc2nc3ccccc3n3c(CC)nnc23)cc1 | -0.04 | i |
| Cc1ccc(S(=O)(=O)NCc2ccc(C(=O)N3CCN(c4ccccn4)CC3)cc2)cc1 | 0 | i |
| Cn1c(=O)c2sccc2n2c(SCc3ccccc3Cl)nnc12 | -0.15 | i |
| CCOC(=O)c1[nH]c(C)c(CN(C(=O)Nc2cc(Cl)ccc2OC)C2CCCCC2)c1C | -1.1 | i |
| COCCn1c(C2CCN(S(=O)(=O)c3ccc(Cl)cc3)C2)nc2cccnc21 (stereo not given) | 0.65 | i |
| Cn1nc(COCc2ccccc2F)c2c1CCN(C(=O)C1CCCC1)C2 | -0.65 | i |
| CCSc1nnc(-c2nn(C)c3c2CN(S(=O)(=O)c2cc(Cl)ccc2OC)CC3)n1CC | -1.1 | i |
| CCn1nc(C)c(CCNC(=O)c2sc3ncccc3c2-n2cccc2)c1C | -0.37 | i |
| CCS(=O)(=O)c1ccc(-c2ccc(NC(=O)c3ccc(C(C)(C)C)cc3)cc2)nn1 | 0.57 | i |
| Cc1ccnc(NC(=O)C2CCCN(S(=O)(=O)c3c(C)nn(CC(=O)N4CCc5ccccc54)c3C)C2)c1 (stereo not given) | -0.92 | i |
| Cc1cc(C)cc(NC(=O)c2cnc(N(C)C)nc2C)c1 | -0.01 | i |
| CCC(C)(C)C(=O)NC1CCN(C2=NS(=O)(=O)C(c3ccc(C(C)C)cc3)=C2C)CC1 | 0.83 | i |
| COc1ccc(-c2nc(CN3CCN(S(=O)(=O)c4ccccc4)CC3)c(C)o2)cc1 | -0.43 | i |
| Cc1ccc(-c2csc3c(=O)n(C)cnc23)cc1 | -0.16 | i |
| Cc1cc(=O)n2[nH]c(CN(C(=O)CC(C)C)c3ccc(Cl)cc3)nc2n1 | -0.73 | i |
| O=c1cc(CNc2ccc(Br)cc2)nc2nc(-c3ccc(F)cc3)[nH]n12 | 1.2 | i |
| Cc1ccc2c(c1)C(N1CCN(C)CC1)=Nc1cccnc1N2 | -0.85 | i |
| CCOC(=O)c1noc2ncn(CC(=O)N(CC)CC)c(=O)c12 | -0.45 | i |
| O=S(=O)(c1cnc[nH]1)N1CCCC1c1ccccc1F (stereo not given) | 0.53 | i |
| CCCCCOc1ccc(C2Nc3ccccc3NC3=C2C(=O)CC(C)(C)C3)cc1 (stereo not given) | 0.37 | i |
| Cc1cc(F)ccc1NC(=O)C(C)n1nc(-c2ccc(C)c(S(N)(=O)=O)c2)c2c(c1=O)CCCC2 (stereo not given) | 0.55 | i |
| COc1ccc(CCC(=O)Nc2ccccc2CCc2nc3ccccc3n2C)cc1 | -0.38 | i |
| Cc1ccc(-c2noc(-c3ccccc3OCC(=O)Nc3nnc(C)s3)n2)cc1 | -0.6 | i |
| CCn1c(CN2CCN(C(C)=O)CC2)nc2cc(NC(C)=O)ccc21 | 0.61 | i |
| CC(C)CCNC(=O)CCCCn1c(=O)c2ccccc2n(CC(=O)Nc2ccccc2)c1=O | 0.51 | i |
| COc1ccccc1-c1csc(-c2nnn(-c3cccc(Cl)c3)c2N)n1 | -0.6 | i |
| O=C(NCCCn1c(-c2ccncc2)nc2cccnc21)Nc1ccccc1 | -0.79 | i |
| Cn1c(=O)c2c(-c3ccc(Br)cc3)n(CC3CCCO3)cc2n(C)c1=O (stereo not given) | -0.18 | i |
| Cc1nc(-c2cc(S(=O)(=O)NCc3ccc4c(c3)OCO4)c(C)s2)sc1C | -1.9 | i |
| O=C(Nc1ccccc1)Nc1cccc(N2CCn3c(nc4cc(Cl)ccc43)C2)c1 | 0.1 | i |

Ordered by heavy-atom count (smallest number first): 7 of the compounds above.
| smiles | Anaer choline gr early | Anaer choline gr |
| --- | --- | --- |
| CCn1c(CN2CCN(C(C)=O)CC2)nc2cc(NC(C)=O)ccc21 | 0.61 | i |
| COc1ccccc1-c1csc(-c2nnn(-c3cccc(Cl)c3)c2N)n1 | -0.6 | i |
| Cc1nc(-c2cc(S(=O)(=O)NCc3ccc4c(c3)OCO4)c(C)s2)sc1C | -1.9 | i |
| Cc1ccc(-c2noc(-c3ccccc3OCC(=O)Nc3nnc(C)s3)n2)cc1 | -0.6 | i |
| COc1ccc(CCC(=O)Nc2ccccc2CCc2nc3ccccc3n2C)cc1 | -0.38 | i |
| CC(C)CCNC(=O)CCCCn1c(=O)c2ccccc2n(CC(=O)Nc2ccccc2)c1=O | 0.51 | i |
| Cc1cc(F)ccc1NC(=O)C(C)n1nc(-c2ccc(C)c(S(N)(=O)=O)c2)c2c(c1=O)CCCC2 (stereo not given) | 0.55 | i |

Next section:
| smiles | Anaer choline gr early | Anaer choline gr |
| --- | --- | --- |
| CSCC[C@H](NC(=O)COc1ccc2c3c(c(=O)oc2c1)CCC3)C(=O)O | 0.27 | i |
| CN1CCC(N2CCN(C(=O)C3CCCN(c4cnc5nccnc5c4)C3)CC2)CC1 (stereo not given) | -1.9 | i |
| CCC(=O)N1N=C(c2c(O)n(C)c(=S)n(C)c2=O)CC1c1ccc(C(C)C)cc1 (stereo not given) | 0.35 | i |
| CCS(=O)(=O)N1CCCC1c1c(C)noc1C (stereo not given) | -1.4 | i |
| O=C1COc2cc(S(=O)(=O)N3CCCC(C(=O)NC4CCCCC4)C3)c(Cl)cc2N1 (stereo not given) | -0.45 | i |
| Cc1ccc(C)c(CSc2nc3cc(C(=O)NC(C)C)ccc3c(=O)n2CC2CCCO2)c1 (stereo not given) | 0.79 | i |

Exported field by field: part of the list above
CCS(=O)(=O)N1CCCC1c1c(C)noc1C (stereo not given)
  Anaer choline gr early: -1.4
  Anaer choline gr: i
CN1CCC(N2CCN(C(=O)C3CCCN(c4cnc5nccnc5c4)C3)CC2)CC1 (stereo not given)
  Anaer choline gr early: -1.9
  Anaer choline gr: i
CSCC[C@H](NC(=O)COc1ccc2c3c(c(=O)oc2c1)CCC3)C(=O)O
  Anaer choline gr early: 0.27
  Anaer choline gr: i
